High-throughput results deposited in PubChem BioAssay by several laboratories.
LANA-H2B inh: blockers of LANA interaction with H2A/H2B – biochemical, FP readout, HTS, primary screen; Protein LANA1 (Human herpesvirus 8 type P (isolate GK18)), Q9QR71; cell-free LANA-H2A/H2B peptide, fluorescence polarization; inhibition, % (test concentration not listed); 320,000 tested, 0.6% active; AID 2629, 2010; in the data active = inhibition mostly above about 10%, no sharp cut-off; inactive = mostly below about 6.7%;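 note: stock transfer was 7.5 nL into about 10 µL; 0% = median of vehicle wells and 100% = median of positive control wells; one replicate is shown; the record names a cut of 25% in any replicate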
Vif A3G: inhibitors of Vif binding to APOBEC3G peptide, primary screen, biochemical, TR-FRET, GST-Vif 1-94, biotin-A3G peptide, dose response retest (AID 1117319); Virion infectivity factor (Human immunodeficiency virus type 1 group M subtype B (isolate …; TR-FRET GST-Vif / biotin-A3G peptide binding; higher % means a stronger effect; test concentration not given here; strong numbers were not always called active; inhibition, %, or IC50 in µM where a hit was titrated; 260,000 tested, 0.57% active;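 active = above the screen mean plus three standard deviations and confirmed in dose response; inconclusive = results disagree or hit not tested in dose response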;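 note: Vif residues 1-94 fused to GST binding biotinylated APOBEC3G peptide 110-148; 0% = full assay without inhibitor and 100% = GST in place of GST-Vif; retest series ran down from 100 µM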
Calb FLC: C. albicans growth inhibition with fluconazole, primary screen, CaCi-2 strain, Alamar Blue fluorescence; C. albicans CaCi-2 (fluconazole-resistant clinical isolate) + fluconazole, 48 h; growth inhibition, % (no concentration beside the values); 300,000 tested, 0.57% active;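 active = most replicates above 75%; inconclusive = exactly half above 75%; inactive = most below 75%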;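 note: all wells also contain fluconazole at 8 µg/ml as a sub-toxic cotreatment; 0% = median of DMSO wells and 100% = median of geldanamycin control wells; wells of about 8 µL received 7.5 nL stock; the first replicate is given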
HNF4A DNA FP: change in binding of human HNF4A to DNA, primary screen, biochemical, fluorescence polarization, FITC-DNA; Hepatocyte nuclear factor 4-alpha (Homo sapiens), P41235; 1 h; activity change, % at 10 µM; 360,000 tested, 0.3% active; AID 1224865, 2016; in the data active = activity change above about 30%, passing the limit was not always enough;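 note: controls were the assay level and a saturating level of protein; the project sought stronger binding though the title names inhibitors; some compounds called inactive have numbers as strong as hits; positive values seem to mean higher polarization but the record does not say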
Target sequence (P41235 whole entry, looked up): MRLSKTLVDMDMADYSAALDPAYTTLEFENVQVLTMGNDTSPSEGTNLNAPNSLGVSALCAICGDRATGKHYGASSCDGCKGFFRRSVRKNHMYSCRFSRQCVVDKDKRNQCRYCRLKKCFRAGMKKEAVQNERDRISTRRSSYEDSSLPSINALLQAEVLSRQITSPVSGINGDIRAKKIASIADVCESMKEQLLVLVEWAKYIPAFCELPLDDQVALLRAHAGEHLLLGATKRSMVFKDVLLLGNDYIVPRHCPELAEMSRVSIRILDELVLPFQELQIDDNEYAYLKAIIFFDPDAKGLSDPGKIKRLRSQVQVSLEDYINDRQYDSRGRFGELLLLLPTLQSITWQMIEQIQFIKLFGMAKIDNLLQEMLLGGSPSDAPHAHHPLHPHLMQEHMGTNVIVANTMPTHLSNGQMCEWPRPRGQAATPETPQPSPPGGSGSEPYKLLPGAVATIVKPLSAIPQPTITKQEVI
ALR H2O2 inh: inhibitors of human ALR sulfhydryl oxidase, primary screen, biochemical, H2O2 detection, HRP-luminol luminescence, single point | AID 485317, 2010 | purified ALR, DTT oxidation | 290,000 tested, 3.8% active | inhibition, % (concentration not given with the values);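 active = mean and each replicate at 75% or more; inconclusive = only one of the two met; inactive = neither met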;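 note: stock transfer was 7.5 nL into about 7.5 µL; 0% = neutral wells and 100% = wells with inactivated enzyme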
Beta2AR agonist: beta2AR agonists driving receptor internalization, primary screen, cell-based, FAP fluorogen, flow cytometry | AID 504454, 2011 | 340,000 tested, 0.43% active | response, % (no concentration beside the values) | Beta-2 adrenergic receptor (Homo sapiens), P07550 | Am2.2-beta2AR cells; reference of the scale not given here;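 active = response above a set limit, near 3 SD of response in nonfluorescent compounds, cut at about 42% in these data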;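 note: stock transfer was 100 nL into about 11 µL; a reference agonist was the positive control; negative values mostly stem from fluorescent compounds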
Target sequence (P07550 whole entry, looked up): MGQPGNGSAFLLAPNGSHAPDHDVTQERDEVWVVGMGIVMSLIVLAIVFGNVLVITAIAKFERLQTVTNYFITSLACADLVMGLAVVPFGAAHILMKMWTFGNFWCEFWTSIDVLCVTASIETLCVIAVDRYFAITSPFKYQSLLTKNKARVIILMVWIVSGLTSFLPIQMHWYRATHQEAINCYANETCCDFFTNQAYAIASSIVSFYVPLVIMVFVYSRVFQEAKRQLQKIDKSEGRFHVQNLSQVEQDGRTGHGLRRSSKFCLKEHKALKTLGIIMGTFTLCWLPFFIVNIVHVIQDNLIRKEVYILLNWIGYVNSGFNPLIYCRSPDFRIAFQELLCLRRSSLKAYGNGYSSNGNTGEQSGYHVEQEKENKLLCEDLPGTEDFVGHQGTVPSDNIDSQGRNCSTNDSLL
RanGTP-Impb inh: inhibitors of RanGTP-importin-beta interaction, primary screen, biochemical, FRET, CFP-Ran, YFP-importin-beta, homogeneous; cell-free CFP-Ran/YFP-importin-beta FRET ratio; inhibition, % (no concentration beside the values); 300,000 tested, 1.1% active; AID 2216, 2009;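 active = most replicates above 15%; inconclusive = exactly half above 15%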;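 note: 0% = DMSO wells and 100% = Ran loaded with GDP instead of GTP; wells of about 40 µL received 100 nL stock; the first replicate is given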
The depositor's hits bear a star; u = inconclusive; x = not tested or not shown.

cpd	SMILES	LANA-H2B inh	Vif A3G	Calb FLC	HNF4A DNA FP	ALR H2O2 inh	Beta2AR agonist	RanGTP-Impb inh
1	Cc1ccccc1C(=O)N1CCN(c2ccc(NC(=O)c3cccc(OC(C)C)c3)cc2)CC1	3.9	-2%	-1	-1.4	-6	11	-3.0
2	COc1ccc(NC(=O)/C(C#N)=C\c2ccc(OCc3ccc(C(=O)O)cc3)c(OC)c2)cc1	-2.9	0%	12	5.7	11	2	-4.7
3	COc1ccc(-c2cc(C(=O)NCC(c3ccccc3)N(C)C)c3ccccc3n2)cc1OC (stereo not given)	-2.6	x	0	4.1	4	19	0.5
4	O=C1NC(=O)C(=C2CCCCCC2)S1	-6.7	x	-5	-1.6	-2	-5	8.9
5	C=CCNC(=S)NNC(=O)c1cccn(Cc2ccc(Cl)cc2Cl)c1=O	-6.1	27%	-1	-3.1	43	-2	4.6
6	CCn1c(COc2cccc(OC)c2)nnc1SCC(=O)Nc1cccc(OC)c1	-1.0	4%	1	-0.2	-11	11	1.1
7	CCOC(=O)N1CCC(N2CCN(S(=O)(=O)c3ccc(C)cc3)CC2)CC1	-3.0	4%	8	-1.4	21	5	u
8	C/C(=N\NC(=S)NC(C)C)c1ccccc1	0.5	-1%	-9	-2.9	57	-1	1.0
9	CCCC1(CCC)NC(=O)N(CC(=O)N2CCc3ccccc32)C1=O	-0.3	x	x	4.8	4	-2	x
10	O=c1[nH]cnc2c1C(c1ccccc1)c1c(nc[nH]c1=O)O2	x	x	-3	3.4	x	-1	-2.3
11	O=C(CSc1nc2scc(-c3ccccc3)c2c(=O)[nH]1)NCCc1ccccc1	0.3	-23%	2	-1.6	3	3	4.8
12	O=C(CSc1ccc(C(F)(F)F)cc1[N+](=O)[O-])NCCOc1ccccc1	0.4	11%	1	-5.5	-7	-5	2.0
13	Cc1cc2c(cc(C(=O)NCc3cccnc3)n2Cc2ccc(Cl)cc2)o1	-3.5	u	-16	9.6	4	0	-0.5
14	O=C1CN(C(=O)CCN2CCOCC2)C(c2ccccc2)c2cc(Br)ccc2N1 (stereo not given)	-6.6	-1%	2	7.7	-6	-5	5.0
15	CC(C)(C)CN1CCNC(=O)C1CC(=O)NCCc1ccccc1F (stereo not given)	2.4	-14%	33	-3.3	-1	-4	-1.6
16	C=CCNC(=O)c1c(N)n(-c2ccc3c(c2)OCO3)c2nc3ccccc3nc12	1.3	2%	u	3.3	-7	4	-1.0
17	CCOC(=O)c1c(NC(=O)c2cc(-c3cccc(O)c3)on2)sc(C(C)=O)c1C	-2.1	-8%	5	-2.4	-14	3	-0.5
18	O=C(Nc1ccc2c(c1)OCCO2)C1CCCN(S(=O)(=O)c2cccnc2)C1 (stereo not given)	-3.0	-1%	0	-3.9	-5	11	-0.4
19	COC(=O)c1ccc(-n2cnc3ccccc32)nc1	1.5	-7%	-17	-3.5	-1	-4	-0.2
20	CNc1nnc(-c2cc3ccccc3oc2=O)s1	-2.9	-10%	12	3.7	-1	-9	-2.3
21	Cc1ccc(-c2ccc(=O)n(CC(=O)NCCN3C(C)CCCC3C)n2)cc1 (stereo not given)	-1.2	4%	-1	-1.1	-4	19	-5.0
22	CCOc1ccc(C(=O)Nc2cc(NC(=O)c3ccc(OCC)c(Cl)c3)cc(C(=O)O)c2)cc1Cl	x	21%	6	-0.1	x	-10	9.1
23	O=C(NC1CCCC1)C(c1cccnc1)N(C(=O)c1ccco1)c1cccc(F)c1 (stereo not given)	6.3	x	-5	1.2	x	-3	-3.8
24	Nc1ccc(S(=O)(=O)Nc2ccc(Cl)nn2)cc1	-1.8	x	5	-5.7	x	0	4.3
25	COCC(C)n1c(C)cc(C(=O)CSc2nc(C)c(C)c(C)n2)c1C (stereo not given)	0.1	-5%	7	-1.3	-2	-7	-0.8
26	O=C(O)CSCNC(=O)CC12CC3CC(CC(C3)C1)C2	5.5	7%	-7	-3.2	-6	3	u
27	CSc1nc(-c2ccco2)nn1C(=O)c1ccccc1	-1.4	-6%	-2	-1.9	1	9	-1.6
28	CCOc1cc(NC(=S)NCCCN2CCOCC2)c(OCC)cc1NC(=O)c1ccc(C)cc1	-1.5	12%	u	0.7	-6	5	1.9
29	CCOC(=O)/C(C#N)=C/c1ccc(N2CCN(Cc3ccccc3)CC2)cc1	-8.8	12%	-2	33	-24	2	73*
30	O=C(O)c1cccc(Nc2nc(-c3ccccc3)nc3ccccc23)c1	5.9	2%	-3	-1.4	13	-2	-3.6

(continued)
cpd	SMILES	LANA-H2B inh	Vif A3G	Calb FLC	HNF4A DNA FP	ALR H2O2 inh	Beta2AR agonist	RanGTP-Impb inh
31	O=C(CSc1ccc2nnc(-c3ccncc3)n2n1)NCC1CCCO1 (stereo not given)	1.6	1%	-7	-1.5	0	4	-2.5
32	CN1C(=O)CC(c2ccccc2)C1=O (stereo not given)	-0.3	x	x	3.1	-12	5	x
33	CC(Sc1nc(-c2ccccc2)cc(C(F)(F)F)n1)C(=O)N1CCCC1 (stereo not given)	2.1	0%	2	-0.8	-6	54*	-12
34	COc1cc(C(=O)Oc2cccc(C(=S)N3CCOCC3)c2)cc(OC)c1OC	2.7	x	5	1.9	-6	5	-2.3
35	Cc1cc(S(=O)(=O)NC2CCN(Cc3ccccc3)CC2)c(C)cc1Cl	0.7	x	14	1.7	-2	-3	1.3
36	CC(C)(C)OC(=O)C[C@H]1C/C=C\C[C@@H](CC(=O)N[C@@H](CO)Cc2ccccc2)C(=O)NCCOC1=O	2.3	x	x	-0.5	1	-3	x
37	O=C(CCNS(=O)(=O)c1ccccc1)NNC(=O)COc1ccc(Cl)cc1	x	-3%	x	-0.7	x	-5	x
38	C=CCn1c(SCc2ccc(C#N)cc2)nnc1-c1cccc(OC)c1	8.7	1%	-1	0.1	-8	0	2.1
39	CCOC(=O)c1sc(=S)n(C)c1NC(=O)c1ccc(C(C)(C)C)cc1	-5.2	25%	0	4.5	-17	5	-2.7
40	Clc1ccccc1-c1ncc2ccccn12	-3.2	10%	10	-3.7	x	2	1.2
41	COc1ccccc1C(=O)NNC(=O)Cc1ccccc1	-1.3	x	7	-3.1	-4	3	0.4
42	CSc1cc(C)n(-c2ccc(Cl)cc2)c(=S)c1C(C)=O	-6.3	-2%	-1	4.0	x	-11	0.1
43	NC(=O)CC1C(=O)N(c2ccc(F)cc2)C(=O)N1NC(=O)CCc1ccccc1 (stereo not given)	0.5	20%	5	1.4	-25	-12	-3.5
44	CN1CCN(c2ccc(NC(=O)c3ccc4c(c3)OCO4)cc2)CC1	-0.2	1%	8	0.4	x	0	-2.6
45	CCC(CC)NC(=O)COC(=O)c1ccc(OCc2ccc(C(C)=O)cc2OC)c(OC)c1	-1.1	7%	10	-0.2	-5	-3	-0.2
46	Cc1cc(C)cc(NC(=O)COC(=O)[C@@H](NC(=O)c2ccco2)C(C)C)c1	-1.9	x	-4	-1.2	5	9	11
47	CCc1ccc(/C=N\NC(=O)c2ccc(Br)o2)s1	1.9	5%	17	3.6	-5	-6	2.4
48	Cc1ccc2oc(-c3cccc(NC(=O)c4ccccn4)c3)nc2c1	2.4	-3%	-3	0.7	x	-6	-2.3
49	COCCN(CC(=O)NCC1CCCO1)C(=O)CCC(=O)Nc1cc(C)on1 (stereo not given)	6.3	-7%	3	8.1	1	1	-1.3
50	CCc1nnc(NC(=O)CCCSc2nc3ccccc3[nH]2)s1	0.7	x	15	5.6	-3	2	1.7
51	CCc1ccc(CCC(=O)Nc2ncc(Cc3ccccc3Cl)s2)o1	1.3	x	26	1.9	x	15	1.7
52	C#CCN1C=C(C(=O)OCC)C(C)N(Cc2ccccc2I)S1(=O)=O (stereo not given)	x	-1%	x	0.4	x	-6	x
53	CC(=O)c1cccc(CN2CCC(n3nccc3NC(=O)CCCc3ccccc3)CC2)c1	1.3	31%	-6	1.1	-8	11	0.2
54	CCC(NC(=O)c1ccccc1NC(=O)c1ccccc1)C(=O)NNC(=O)CSc1nc2ccccc2o1 (stereo not given)	-1.0	u	-18	-1.2	-3	-3	-0.9
55	COc1ccc(C(O)c2nccn2Cc2ccccc2)cc1OC (stereo not given)	-1.9	23%	-9	4.6	-5	-8	-1.4
56	CCOC(=O)C1CCN(C(=O)CCc2ccc(S(=O)(=O)NCC(C)C)cc2)CC1	6.3	x	-19	-2.7	-5	13	2.2
57	COc1ccc(C(=O)N(CC2CCCO2)C(C(=O)NCCC(C)C)c2ccc(C)cc2)cc1OC (stereo not given)	3.5	0%	20	1.9	-1	3	1.1
58	COc1ccc(NC(=O)C2C3C=CC(O3)C2C(=O)O)cc1 (stereo not given)	4.1	1%	-8	-1.6	-13	5	-2.0
59	Brc1ccc(-c2c(-c3ccsc3)sc3ccccc23)cn1	1.2	x	x	1.2	0	3	x
60	COc1cccc(/C=C/C(=O)OCCN2C(=O)c3ccccc3C2=O)c1	2.9	2%	-3	-4.1	-10	0	2.6

Next part
cpd	SMILES	LANA-H2B inh	Vif A3G	Calb FLC	HNF4A DNA FP	ALR H2O2 inh	Beta2AR agonist	RanGTP-Impb inh
61	C=CCOc1cccc(NC(=O)c2ccccc2SC)c1	1.6	x	18	3.9	-15	0	-2.1
62	CC(=O)c1cccc(NC(=O)CN(c2ccccc2F)S(C)(=O)=O)c1	0.5	3%	-23	2.8	-5	5	-0.9
63	COc1cc(COc2ccc3c(C)c(Cc4ccccc4)c(=O)oc3c2C)cc(OC)c1OC	-0.4	-2%	16	-0.1	-2	1	3.6
64	Cc1oc2c(C)c3oc(=O)c4c(c3cc2c1C)CCCC4	-10	28%	0	2.7	-4	2	4.0
65	O=C(O)Cc1sc(NCc2ccco2)nc1-c1ccccc1	1.3	u	1	2.3	51	10	3.5
66	Cc1ccc(SCC(=O)Nc2cc([N+](=O)[O-])ccc2O)cc1	-3.0	-5%	87*	-1.6	8	5	1.6
67	Cc1cc(=O)n(C)c(=O)n1CCCCCN1CCCC1	4.4	-1%	2	2.4	100*	2	0.6
68	CCCOCC1CC(CCc2nc(=S)[nH][nH]2)C(=O)O1 (stereo not given)	-2.7	1%	-11	-2.7	4	-9	-2.3

An unsorted share of the library. About 6.3% of those tested had a hit in this group.
